# Rango dissoc inh – prevents RanGTP from dissociating the Rango-importin beta complex. O95149+P62826. Biochemical FRET Rango-importin beta, RanGTP-induced dissociation. Potency, µM (highest dose often 46.1 µM), inactives show top-dose activity change, negative = inhibition. 340,000 tested, 0.071% active; active means falling FRET ratio curve, often poorly fitted, with flat reads before Ran was added; inconclusive means other falling curves, or compound fluorescence or quenching; inactive means flat or rising ratio curve;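 also: potency is read from the fitted curve at half-maximal effect; % of control where 0% means no effect; nearly all actives have a fitted effect of over 45% in size; -100% = wells without RanGTP and RCC1; the record marks most hits as doubtful in a second field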
#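 Two FRET readings bracket the reaction: one 5 min after compound meets Rango–importin beta, another 45 min after RanGTP-RCC1 (0.6 uM Ran, 0.2 uM RCC1, 2 mM GTP) is added. Only the second defines inhibition.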
# miR-21 reporter – miR-21 reporter, rising signal. 340,000 tested, under 10 active. HeLa miR-21 FLuc reporter, luciferase, 48 h. Potency, µM (top dose mostly 38.3 µM), for inactives: at the highest dose reporter change, positive = more light. AID 2288; active = well fitted rising curve with a large enough effect; inconclusive = small, poorly fitted or top-dose-only effect; inactive = no such curve, though single readings can be large or run the other way;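 also: % of control where 0% means no effect; miR-21 action dims this reporter so a rising signal means less miR-21 action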
#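 HeLa miR-21-FLuc reporter line, endogenous miR-21; 2000 cells/well in DMEM/10% FBS; compound titration up to ~40uM final, 48 h, 37 degree Celsius; luciferase detection reagent, 15 min lysis, CCD luminescence.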
# Rango-impB inh – inhibitors of Rango-importin beta complex formation. 340,000 tested, 0.031% active. Q14974. AID 540263. Rango CFP/YFP FRET sensor + importin beta, 45 min. Potency, µM (top dose mostly 92.2 µM), for the others: at the top dose inhibition of complex formation; active = rising FRET ratio curve, often small or poorly fitted; inconclusive = mostly compound fluorescence or quenching in the first reads; inactive = flat curves in all reads;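 also: potency is read from the fitted curve at half-maximal effect; 0% = DMSO wells and 100% = buffer wells lacking importin beta; nearly all actives have a fitted effect of over 15% in size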
#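 FRET biosensor (snurportin 1 IBB flanked by EYFP and cerulean), 50 nM, with compound 5 min, then 0.125 microM importin beta in PBS, 1 mM DTT, 0.02% Tween-20, 0.1% BSA. CFP/YFP ratio read after 45 min at room temperature; pre-read flags interference.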
# GLA inh pH 4.5 – alpha-galactosidase A (human) inhibition, pH 4.5; P06280; purified enzyme, 4-MU-alpha-Gal fluorescence, pH 4.5; activity change, negative = inhibition, % at 105 µM; 230,000 tested, under 10 active; AID 1467; inconclusive = small, poorly fitted or top-dose-only inhibition, or a rising curve; inactive = flat fitted curve, though single readings scatter; no compound was filed as active;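 also: 0% = full activity with enzyme and -100% = basal without enzyme; dose as in the result columns while the protocol names 77 µM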
# Target sequence (P06280 whole entry, looked up): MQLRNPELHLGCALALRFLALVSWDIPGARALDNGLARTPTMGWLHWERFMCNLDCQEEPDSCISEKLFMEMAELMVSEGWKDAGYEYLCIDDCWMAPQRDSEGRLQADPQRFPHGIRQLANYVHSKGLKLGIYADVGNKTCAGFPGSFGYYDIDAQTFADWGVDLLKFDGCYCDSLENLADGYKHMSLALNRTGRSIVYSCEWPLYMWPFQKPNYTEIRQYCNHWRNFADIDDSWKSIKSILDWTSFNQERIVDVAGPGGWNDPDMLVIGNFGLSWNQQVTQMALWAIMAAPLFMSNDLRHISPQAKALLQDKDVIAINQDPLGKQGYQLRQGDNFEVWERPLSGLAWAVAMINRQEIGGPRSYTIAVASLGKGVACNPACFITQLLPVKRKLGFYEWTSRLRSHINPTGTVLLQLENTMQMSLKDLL
# Starred values were filed as active, the others as inactive; ? = inconclusive; . = no result given; & = joins results of further samples.
SMILES,Rango dissoc inh,miR-21 reporter,Rango-impB inh,GLA inh pH 4.5
O=C(NCCNS(=O)(=O)c1ccc(Cl)cc1)c1cc(OCC(F)(F)F)ccc1OCC(F)(F)F,-9.7%,-4.4%,-0.4%,4.0
CCOC(=O)CSc1nnc(CNC(=O)c2cccs2)n1-c1cccc(C)c1,3.3%,-0.5%,-2.9%,-5.6
COc1ccc(C2c3[nH]c4ccccc4c3CCN2C(=O)Cc2nonc2C)c(F)c1 (centres undefined),-15.0%,-24.0%,?,-0.7
Brc1cccc(OCCCN2CCCCCC2)c1,19.8%,-10.3%,3.8%,-8.7
CCNC(=O)NC(=O)COC(=O)CCCc1nc2ccccc2s1,9.6%,3.8%,0.6%,4.9
CCN(CC(=O)NC(=O)Nc1ccccc1F)Cc1ccccc1,6.9%,.,-1.7%,.
CC(C)Sc1nc(N)nc(-c2cccs2)c1C#N,-3.4%,-62.9%,0.0%,-21.3
CCOC(=O)N1CCN(C(=O)CN(c2ccc(C)cc2)S(=O)(=O)c2c(C)noc2C)CC1,-0.3%,-7.0%,0.4%,-4.5
O=C(NCc1ccccc1Cl)c1ccc(CS(=O)(=O)c2ccccc2)o1,?,-0.7%,-2.6%,.
CCCN(CC(=O)Nc1ccccc1C)C(=O)c1ccc2[nH]c3c(c2c1)CC(C)CC3 (centres undefined),-14.7%,.,?,.
Cc1nn(-c2ccc([N+](=O)[O-])cc2)c(N)c1-c1ccccc1,1.0%,-41.9%,2.5%,-17.2
COc1ccc(NC(=O)C(c2ccc(OC)cc2)N(C)C(=O)CNC(C)=O)cc1 (centres undefined),1.7%,-4.5%,-0.2%,-22.1
Cc1ccc(CNC(=O)CN(C(=O)C2(C)CC(=O)N=C3C=CC=CN32)c2ccccc2)cc1 (centres undefined),-4.9%,4.7%,-1.9%,.
N/C(=N/O)C(c1ccccc1)c1ccccc1,9.9%,-14.6%,8.2%,-3.5
Cc1cccc2nc3c(nc12)CCCC3,-15.8%,-2.7%,0.0%,.
O=S(=O)(NCc1csc(-c2ccccc2)n1)c1ccc(Cl)s1,4.7%,-8.3%,0.8%,3.3
Cc1nn(-c2ccccc2Cl)c(Cl)c1/C=N/Nc1cccc(C(=O)O)c1,3.3%,-34.2%,-0.1%,-3.8
COc1cccc(NC(=O)CSc2nnc(NC(=O)c3ccco3)s2)c1,-14.1%,-20.1%,0.3%,.
Cc1nc2c(C(=O)NCCc3ccccc3)c[nH]n2c(=O)c1Cl,-3.1%,-0.6%,0.6%,5.0
Cc1cc(C)c2c(N)c3cccc(C)c3nc2n1,?,?,?,4.9
CC(=O)NS(=O)(=O)c1ccc(NS(=O)(=O)c2ccc(F)cc2)cc1,-21.4%,-2.6%,-1.2%,4.1
CC(=O)Nc1ccc(S(=O)(=O)Nc2nc3ccccc3nc2-n2ccc(=NC(=O)c3ccccc3)cc2)cc1,-29.1%,-1.1%,?,-6.4
COc1ccc(S(=O)(=O)NCCN2CCOCC2)cc1[N+](=O)[O-],13.1%,3.4%,-0.4%,.
COc1ccc(N2CCN(c3oc(-c4ccccc4OC)nc3C#N)CC2)cc1,4.0%,1.3%,1.8%,-17.5
O=C(Nc1ccc(F)cc1)N1CCC(c2nc3c(nnn3Cc3cccc(Cl)c3)c(=O)[nH]2)CC1,5.1%,-0.6%,-4.2%,-1.8
O=C(CSc1nnnn1-c1cccc(F)c1)Nc1nc2ccccc2s1,2.5%,-0.9%,-3.0%,-2.2
O=C(NCc1ccco1)C1CCC(N2C(=O)c3ccccc3C2=O)CC1 (centres undefined),10.0%,1.6%,2.9%,4.1
COc1ccc2[nH]c(C)c(CCNc3ccc(C(F)(F)F)cc3[N+](=O)[O-])c2c1,1.3%,-0.3%,1.3%,5.9
ClCC1NCC(c2ccccc2Cl)c2c1[nH]c1ccccc21 (centres undefined),?,-3.7%,?,-12.4
CC(c1ccccc1)n1c(-c2ccc(C(C)(C)C)cc2)n[nH]c1=S (centres undefined),7.7%,-14.3%,-2.8%,.
CC(C)CN(C(=O)CSc1nc2ccccc2c(=O)[nH]1)c1c(N)n(CC(C)C)c(=O)[nH]c1=O,1.5%,.,0.3%,.
Cc1cc(=O)[nH]c(SCC(=O)c2ccc(F)c(C)c2)n1,2.7%,-11.4%,-3.1%,.
O=C(NCc1ccccc1Cl)C1CCCN(S(=O)(=O)c2cccc3nonc23)C1 (centres undefined),0.6%,-0.9%,5.9%,.
CCOC(=O)C(=CNc1ncccc1C)C(=O)OCC,13.7%,-16.0%,-3.0%,.
O=C1CC(=O)N(c2ccccc2)N1c1ccccc1,8.6%,-8.0%,0.1%,2.7
O=C(c1c(F)c(F)c(F)c(F)c1F)N1CCN(c2cccc(C(F)(F)F)c2)CC1,-15.6%,0.6%,-3.3%,-16.5
C=CCn1c(-c2cccc(S(=O)(=O)N(CC)CC)c2)n[nH]c1=S,0.4%,-6.6%,-2.2%,4.7
O=C(C[C@H]1C/C=C\CC[C@@H](Cc2ccc(F)cc2)C(=O)OCCNC1=O)NCCO,0.7%,.,0.0%,.
CCC1CCCCN1C(=O)c1cc(S(=O)(=O)N2CCOCC2)ccc1C (centres undefined),-6.5%,.,1.1%,.
CC(Nc1nc(-c2ccccc2)nc2ccccc12)c1ccccc1 (centres undefined),-0.4%,7.4%,3.3%,4.9

# 2 consecutive entries out of the list so far, for reference:
SMILES,Rango dissoc inh,miR-21 reporter,Rango-impB inh,GLA inh pH 4.5
CC(C)CN(C(=O)CSc1nc2ccccc2c(=O)[nH]1)c1c(N)n(CC(C)C)c(=O)[nH]c1=O,1.5%,.,0.3%,.
Cc1cc(=O)[nH]c(SCC(=O)c2ccc(F)c(C)c2)n1,2.7%,-11.4%,-3.1%,.

# Sorted by molar mass (ascending): part of the list above
SMILES,Rango dissoc inh,miR-21 reporter,Rango-impB inh,GLA inh pH 4.5
Cc1cc(C)c2c(N)c3cccc(C)c3nc2n1,?,?,?,4.9
Cc1cc(=O)[nH]c(SCC(=O)c2ccc(F)c(C)c2)n1,2.7%,-11.4%,-3.1%,.
CCC1CCCCN1C(=O)c1cc(S(=O)(=O)N2CCOCC2)ccc1C (centres undefined),-6.5%,.,1.1%,.
COc1cccc(NC(=O)CSc2nnc(NC(=O)c3ccco3)s2)c1,-14.1%,-20.1%,0.3%,.
Cc1ccc(CNC(=O)CN(C(=O)C2(C)CC(=O)N=C3C=CC=CN32)c2ccccc2)cc1 (centres undefined),-4.9%,4.7%,-1.9%,.
CC(C)CN(C(=O)CSc1nc2ccccc2c(=O)[nH]1)c1c(N)n(CC(C)C)c(=O)[nH]c1=O,1.5%,.,0.3%,.

# Following part
SMILES,Rango dissoc inh,miR-21 reporter,Rango-impB inh,GLA inh pH 4.5
CCOc1ccccc1CN1CCNC(=O)C1CC(=O)NC1CCCCCC1 (centres undefined),-10.5%,1.1%,0.0%,.
c1ccc(OCc2noc(CN3CC[C@@H]4CCCC[C@H]4C3)n2)cc1,5.1%,-20.9%,-2.4%,-1.5
CCC(N=c1cc(-c2ccc(OC)cc2)oc2ccc(C)cc12)C(=O)O (centres undefined),?,-88.8%,0.4%,?
CC(C)(C)c1ccc(C(=O)NCCNC(=O)c2ccco2)cc1,-10.5%,-19.0%,0.0%,.
Cc1ccc(NC(=O)Nc2ccc(Cl)cn2)cc1,20.3%,-33.9%,-3.3%,-2.3
CCN(/C(N)=N/c1nc(C)cc(C)n1)c1ccccc1,-9.7%,-13.1%,2.1%,.
CCOc1ccc(CN(C)CC(=O)NCc2ccc(F)cc2)cc1,6.9%,1.7%,-0.1%,.
COc1cc(C(=O)NCCCN(C)C)ccc1OCC(=O)Nc1cccc(C(F)(F)F)c1,1.9%,-8.4%,2.0%,5.6
O=C(CSc1ccc2nnc(CCNC(=O)c3ccccc3)n2n1)NCc1ccc(F)cc1,-3.9%,-4.1%,-3.1%,.
CCC(Cc1ccccc1)NC(=O)C1CC1 (centres undefined),3.7%,-3.7%,0.5%,.
COc1ccc(NC(=O)CN(C)C(=O)/C=C/c2cn(-c3ccccc3)nc2-c2ccc(C)cc2)cc1,12.0%,.,-1.5%,.
O=C(NN/C(=N/S(=O)(=O)c1ccc(Cl)cc1)c1ccccc1)c1cccc(Cl)c1,-1.0%,-67.0%,0.8%,.
COc1ccc(NC(=O)CSc2nc3nc(C)cc(C)n3n2)cc1,1.8%,-5.3%&-8.9%,1.7%,.
O=C(COC(=O)c1ccccc1OCc1ccc(Cl)cc1)NCC1CCCO1 (centres undefined),18.7%,.,-5.1%,.
COc1ccc(NC(=O)CN2c3cccc4cccc(c34)S2(=O)=O)cc1,-10.1%,-6.7%,2.7%,-20.6
COc1ccc(NC(=O)CCn2nnc(-c3ccc(C)cc3)n2)cc1OC,-11.3%,-6.5%,10.4%,-6.6
COCc1cnc(C)nc1N,-14.4%,-1.2%,-0.7%,5.3
COc1ccc(CC(=O)Nc2ccc(NC(=O)c3ccc(Br)cc3)cc2)cc1OC,18.2%,1.7%,-1.5%,.
COc1cc(/C=C(\C#N)c2ccccn2)ccc1OCC(=O)Nc1c(Cl)cccc1Cl,?,-12.2%,?,9.5
Cc1nnc(Sc2nc3c(c(=O)[nH]c(=O)n3C)n2CCc2ccccc2)s1,-11.2%,-1.2%,-2.0%,3.4
COc1ccc(CNc2ncnc3cc(Cl)ccc23)cc1OC,-3.7%,1.0%,-3.6%,4.4
Cc1ccsc1C(=O)OCC(=O)NCCNC(=O)COC(=O)c1sccc1C,-15.6%,.,0.4%,.
Cc1ccccc1C(=O)NCCNc1ccc([N+](=O)[O-])cc1,-5.0%,1.5%,-5.8%,1.0
COC(=O)COc1cc(OCC(=O)OC)c2c(C)c(Cl)c(=O)oc2c1,-13.0%,0.2%,-5.2%,10.5
COC(=O)CC1C(=O)NCCN1C(=O)Nc1ccc(Cl)cc1 (centres undefined),2.8%,0.2%,-0.5%,6.9
O=C(NCCc1ccccc1)C1CCCN(c2ncnc3c2nc2n3CCCCC2)C1 (centres undefined),5.9%,-2.3%,0.2%,.
C=CCn1c(=O)c2ccccc2n2c(SCC(=O)N(C)C)nnc12,7.3%,6.4%,8.0%,.
Cc1ccc(S(=O)(=O)Nc2cccc(C(=O)N3CCN(c4ccccc4O)CC3)c2)cc1F,-4.1%,.,-5.1%,.
O=C(c1ccco1)N1CCN(c2ncnc3sc4c(c23)CCC4)CC1,-7.1%,17.7%,-3.7%,-5.7
Cc1nc2sc(C(c3ccco3)N3CCC4(CC3)OCCO4)c(O)n2n1 (centres undefined),8.3%,.,3.1%,.
COCCNC(=O)C1CC(c2ccccc2[N+](=O)[O-])=NO1 (centres undefined),-3.3%,-4.8%,2.0%,3.2
COC(=O)c1ccc(/C=N/OCC(=O)NC2CCCC(C)C2C)cc1 (centres undefined),-0.6%,-8.2%,-1.6%,-2.4
Cc1ccc(Oc2cc(NC(=O)CCCn3nc([N+](=O)[O-])cc3C)cc([N+](=O)[O-])c2)cc1,1.6%,-7.7%,?,-8.8
CC1CCCC(C)N1C(=O)CSc1nccc(=O)[nH]1 (centres undefined),9.3%,4.8%,1.6%,.
COC(=O)Nc1ccc(S(=O)(=O)N2CCCCC2C(=O)O)cc1 (centres undefined),40.2%,-1.9%,2.2%,2.0
CCOc1cc(CNCCO)cc(Br)c1OCc1ccc(Cl)cc1,-2.2%,?,0.0%,-9.3
CCN(CC)c1ccc2c(C)c(-c3ccc(N)cc3)c(=O)oc2c1,?,-13.8%,?,-16.0
O=C(Nc1ccc2c(c1)OCCO2)c1ccoc1,-4.4%,-43.2%,3.7%,-10.0
Cc1ccccc1NC(=O)c1ccccn1,1.3%,-40.6%,1.4%,5.6
Fc1ccc(-c2ncc3ccccn23)cc1,-18.5%,-33.3%,-0.9%,1.0
Cc1onc(-c2c(F)cccc2Cl)c1C(=O)N(Cc1ccccc1)C(C)C,10.9%,4.9%,0.7%,.
Cc1cnc(C(=O)Nc2ccc(S(=O)(=O)N(C(C)C)C(C)C)cc2)cn1,21.4%,-4.4%,-1.0%,.
CC(C)(C)NC(=O)NC(=O)CN1C(=O)NC(C)(c2ccccc2)C1=O (centres undefined),-4.6%,6.3%,0.6%,.

# Only part of the results is shown; count on the stated rates, not on these rows.
